Biofilm kill mix: clotrimazole potentiators killing C. albicans biofilm, primary screen, 4-compound mixtures. C. albicans biofilm persisters + clotrimazole, fluorescence viability; primary screen in compound mixtures of four per well. inhibition, % at 7.6 µM. 120,000 compounds, 0.02% hits;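 active means inhibition above 30.3% in the primary screen of four-compound pools, then above 30% when the compound was retested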;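 further: compounds exposed to preformed 24 h biofilms for 48 h; the number belongs to the whole pool; some results filed as inactive read as strong as hits; inactives centre near 12; 0% = biofilm with clotrimazole alone and 100% = kill control; retested singly at about 60 µM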
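Assay system: C. albicans biofilms / Medium: RPMI/MOPS medium, pH 7.0 / Schedule: biofilm formation 24 h, compound exposure 48 h, 37 °C / Measured by: Alamar Blue fluorescence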
Starred values were filed as active, the others as inactive.

SMILES	Biofilm kill mix
N#Cc1ccc(C23CC4(C2)[C@H](CN(Cc2ccc(-c5ccccc5)cc2)[C@@H]4c2ccccc2)C3c2ccccc2)cc1 (some centres not stated)	15
COc1ccc(S(=O)(=O)Nc2ccccc2-c2nnn(CC(=O)Nc3ccccc3OC)n2)cc1	11
CC(C)c1ccc(-n2cccc2/C=C2/C(=N)N3C=CSC3=NC2=O)cc1	15
Cc1ccc(OCCSCc2nnc(NC(=O)Nc3cccc(Cl)c3)s2)cc1	18
COc1ccc(N2C(=O)CCC2(C(N)=O)c2ccccc2)cc1 (configuration not stated)	10
O=C(NCc1cccs1)C1CC(c2ccc(F)cc2)=NO1 (configuration not stated)	12
O=C(c1ccc(F)cc1)N1CCCC(c2ccccc2)C1 (configuration not stated)	10
COC(=O)c1cc(S(=O)(=O)C(C)C)c(S(C)=O)s1 (configuration not stated)	24
CC(C)Sc1ccc(C(=O)Nc2ccc(F)cc2F)cn1	15
COCC(C)NC(=O)c1oc2c(c1C)C1(CCC2)SCCS1 (configuration not stated)	21
Cn1c(=O)cc(C(=O)N/N=C/c2ccc(F)cc2)[nH]c1=O	23
O=C(Cc1ccccc1[N+](=O)[O-])N1CCN(c2ccccc2F)CC1	12
O=[N+]([O-])c1ccc(Oc2ccc(S(=O)(=O)N3CCCCC3)cc2)cc1	11
CCOC(=O)C1=C(c2ccccc2)OC(N)=C(C#N)C1c1cccnc1 (configuration not stated)	7
O=C1C=CN(Cc2ccccc2)CC1	13
CCCN(CCC)S(=O)(=O)c1ccc(C(=O)N2CC3CCC(CC3)C2)cc1	14
C=CCS(=O)(=O)N1CCCC(C(=O)c2cccc(Cl)c2)C1 (configuration not stated)	12
Cc1cc(NC(=O)CCCC(=O)NCc2ccccc2)no1	10
NS(=O)(=O)c1ccc(NC(=O)CSc2ncccn2)cc1	15
Cc1ccc(OCC(=O)NCC(=O)Nc2ccc(F)cc2)c([N+](=O)[O-])n1	14
Cc1ccc(NC(=O)CCNCc2ccco2)cc1S(=O)(=O)N(C)C	16
CCC(C)(C)C1CCC2(CC1)NC(=S)N(c1ccccc1)N2 (configuration not stated)	16
OCCNc1nc(Nc2cccc(O)c2)nc2ccccc12	13
Cc1ccc(SC(C)C(=O)NC(N)=O)c(C)c1 (configuration not stated)	9
O=[N+]([O-])c1ccc(C2OCCO2)cc1CS(=O)(=O)c1ccccc1	5
O=C(O)CCC(=O)Nc1ccc(C(=O)OCC(=O)c2ccc(Cl)cc2)cc1	9
O=C(c1cccc(Cl)c1)N1CCC(N2CCC(C(=O)N3CCOCC3)CC2)CC1	15
Cc1nc(SCC(=O)NNC(=O)c2cccs2)[nH]c(=O)c1C	13
CNC(=S)N/N=C(\C)c1ccc(Cl)c(Cl)c1	20
CC(=O)c1c(C)[nH]c(C(=O)COC(=O)C2CC2)c1C	25
C=CCNC(=S)Nc1ccc2nsnc2c1	8
COc1ccc(-c2cc(-c3nnc(COC(=O)CC4CCCC4)o3)c3ccccc3n2)cc1OC	15
CS(=O)(=O)NNC(=O)c1cc2cc3ccccc3nc2s1	11
CC(C)(C)c1ccc(-c2n[nH]c(=S)n2/N=C/c2ccncc2)cc1	-5
CCOC(=O)c1nn(-c2ccccc2)cc1O	20
Cn1cc(/C=C2\SC(=O)N(c3ccc(O)cc3)C2=O)c2ccccc21	13

Three structures out of the list, ordered by length of the SMILES, largest number first:
SMILES	Biofilm kill mix
COc1ccc(-c2cc(-c3nnc(COC(=O)CC4CCCC4)o3)c3ccccc3n2)cc1OC	15
O=C(O)CCC(=O)Nc1ccc(C(=O)OCC(=O)c2ccc(Cl)cc2)cc1	9
CNC(=S)N/N=C(\C)c1ccc(Cl)c(Cl)c1	20

Carrying on:
SMILES	Biofilm kill mix
Cc1cc(NS(=O)(=O)c2ccc(NC(=O)CSc3nc4ncccc4[nH]3)cc2)nc(C)n1	5
CCC(=O)Nc1ccc(C(=O)OCc2ccccc2)cc1	9
CC(CCC(=O)O)C1CC[C@@]2(C)C3C(=O)CC4C(C)(C)C(O)CC[C@]4(C)C3C(=O)C[C@]12C (some centres not stated)	21
COc1cccc(C(=O)/C=C/c2ccc(N3CCCCC3)c([N+](=O)[O-])c2)c1	8
O=C(OCc1nc2ccccc2s1)c1ccccc1O	17
Cc1ccc(NC(=O)COC(=O)c2ccc(Cl)cc2)cc1S(=O)(=O)N(C)C	15
CN1CCC/C1=C1/C(=O)N(c2ccccc2)N=C1NC(=O)Nc1cccc(Cl)c1	13
CSCCC(NS(=O)(=O)/C=C/c1ccccc1)C(=O)O (configuration not stated)	14
Cc1ccc(S(=O)(=O)NCC(=O)Nc2cccc([N+](=O)[O-])c2)cc1	11
c1ccc2c(c1)OCCOCCOc1ccccc1OCCOCCO2	18
CCN(CC)C(=O)C(=O)N/N=C/c1ccc(C(=O)OC)cc1	10
COc1ccc(C2CC(O)(c3ccccc3)Oc3cc(OC)c(OC)c(OC)c32)cc1 (configuration not stated)	10

7 entries drawn at random from those above, as already listed:
SMILES	Biofilm kill mix
COc1cccc(C(=O)/C=C/c2ccc(N3CCCCC3)c([N+](=O)[O-])c2)c1	8
Cc1cc(NS(=O)(=O)c2ccc(NC(=O)CSc3nc4ncccc4[nH]3)cc2)nc(C)n1	5
CCC(=O)Nc1ccc(C(=O)OCc2ccccc2)cc1	9
CCN(CC)C(=O)C(=O)N/N=C/c1ccc(C(=O)OC)cc1	10
Cc1ccc(NC(=O)COC(=O)c2ccc(Cl)cc2)cc1S(=O)(=O)N(C)C	15
COc1ccc(C2CC(O)(c3ccccc3)Oc3cc(OC)c(OC)c(OC)c32)cc1 (configuration not stated)	10
CN1CCC/C1=C1/C(=O)N(c2ccccc2)N=C1NC(=O)Nc1cccc(Cl)c1	13

Continued.
SMILES	Biofilm kill mix
c1ccc2c3c([nH]c2c1)C1(CCCCC1)NCC3	26
O=C(O)CCCCCNC(=O)/C=C/c1ccco1	-8
O=S(=O)(c1cc(Cl)ccc1Cl)n1ccnc1	27
CC(C)/C=N/Nc1nc(-c2ccc(Br)cc2)cs1	1
COCC(C)NCc1cc(Br)ccc1OC (configuration not stated)	6
Cc1cc(OCc2ccccc2)ccc1/C(O)=C1/C(=O)C(=O)N(Cc2cccnc2)C1c1ccncc1 (configuration not stated)	14
Cc1ccc(NC(=O)c2ccccc2)cc1-n1cnnn1	2
O=C(Nc1cccc([N+](=O)[O-])c1)c1ccc(CN2CCOCC2)cc1	13
Cc1cc(NC(=O)Nc2ccccc2[N+](=O)[O-])no1	12
CC(C)CC1NC(=O)N(CC(=O)Nc2ccccc2-c2ccccc2)C1=O (configuration not stated)	17
COc1c(C)cc(C(=O)C2CCCN(Cc3c(C)n(C)n(-c4ccccc4)c3=O)C2)cc1C (configuration not stated)	10
CCN(C(=O)CSc1nnc(-c2ccc(Cl)cc2)n1C)C1CCS(=O)(=O)C1 (configuration not stated)	4
CC(C)N(C(=O)CSc1nc(COc2ccccc2)nc2ccccc12)C(C)C	16
Cc1ccc(-n2c(O)c(C=Nc3ccc(S(=O)(=O)Nc4ncccn4)cc3)c3ccccc3c2=O)cc1C	14
CC(C)=N/N=C(/c1ccc([N+](=O)[O-])cc1)C12CN3CN(CN(C3)C1)C2	12
O=C(CN1C(=O)/C(=C/c2cccc(Br)c2)SC1=S)NC1=NCCS1	14
CCOC(=O)N1CCN(CC(=O)Nc2ccc(F)c(F)c2F)CC1	-7
COc1ccc(C(C)(C)C)cc1NC(=O)Cn1cnnn1	18
O=c1c2c3c(sc2n(CCN2CCCC2)c(=O)n1Cc1ccccc1)CCCCC3	17
COc1ccc(CCNC(=O)Cn2nc(C(=O)O)c3ccccc3c2=O)cc1OC	6
O=C(O)c1ccc(Cn2cc(C(F)(F)F)ccc2=O)cc1	5
OC1COC(OCC2OC(OCc3ccccc3)C(O)C(O)C2O)C(O)C1O (configuration not stated)	4
Cc1nc(/C(N)=N/OC(=O)c2cccc(Cl)c2)c(C(F)(F)F)o1	12
COc1ccccc1C1CCCN1Cc1nc(-c2ccc(C)s2)oc1C (configuration not stated)	2
O=C(Cn1cnc2ccccc2c1=O)N1CCN(c2ccc(F)cc2)CC1	0
COc1cc(/C=C(\C#N)C(=O)N2CCc3ccccc32)ccc1O	14
Cc1ccc([C@@H]2C[C@H]3CN(Cc4cccc(Cl)c4)C(=O)[C@]34CCCN24)o1	4
Cc1ccc2c(Cl)c(C(=O)Nc3nn[nH]n3)sc2c1	9
COc1ccc(CCn2nnc(-c3ccc(NC(C)=O)c(Cl)c3)n2)cc1	9
FC(F)(F)c1cccc(-c2nn[nH]n2)c1	14
O=C(Nc1ccccc1)Nc1c(F)cccc1F	8
CC(NC(=O)Nc1ccc(Cl)cc1)C1CCCO1 (configuration not stated)	16
CCCCNC(=O)C1CC(=O)N(CCc2ccccc2)C1 (configuration not stated)	15
COc1ccc(/C=N/NC(=O)c2ccn[nH]2)cc1Cn1cc([N+](=O)[O-])cn1	21
Nc1nnc(SCC(=O)NN2C(=O)NC3(CCCCC3)C2=O)s1	12
COc1cccc(/C=N/NC(=O)c2ccc(CN3c4cccc5cccc(c45)S3(=O)=O)cc2)c1	15

Continued; it opens with the 4 that closed the last part.
SMILES	Biofilm kill mix
CCCCNC(=O)C1CC(=O)N(CCc2ccccc2)C1 (configuration not stated)	15
COc1ccc(/C=N/NC(=O)c2ccn[nH]2)cc1Cn1cc([N+](=O)[O-])cn1	21
Nc1nnc(SCC(=O)NN2C(=O)NC3(CCCCC3)C2=O)s1	12
COc1cccc(/C=N/NC(=O)c2ccc(CN3c4cccc5cccc(c45)S3(=O)=O)cc2)c1	15
COC(=O)c1ccc(COC(=O)c2nn(C)c(=O)c3ccccc23)cc1	16
O=C(Nc1cc(C(F)(F)F)ccc1Cl)c1ccncc1	16
CCN(CC)S(=O)(=O)c1ccc(C(=O)OCCN2C(=O)c3cccc4c(N5CCOCC5)ccc(c34)C2=O)cc1	10
CNc1ccc(C(=O)c2ccccc2C(=O)O)cc1[N+](=O)[O-]	-5
Cc1ccccc1C(=O)Nc1ccc2c(C#N)c3nc4ccccc4nc3n2c1	13
C=CCn1c(NS(=O)(=O)c2ccccc2)c(S(=O)(=O)c2ccc(C)cc2)c2nc3ccccc3nc21	5
Cc1ccccc1-c1nnc(NC(=O)c2cc3ccccc3oc2=O)s1	18
CCn1c(C)nc2cc(C(=O)NNC(=O)Nc3cccc(Cl)c3)ccc21	-8
CC(=O)c1c(C)[nH]c(C(=O)OCC(=O)N2CC(=O)Nc3ccccc32)c1C	19
COc1nc(Nc2ccc([N+](=O)[O-])cc2)nc(NC(C)C)n1	12
N/C(Cc1ccc(Cl)cc1Cl)=N\OC(=O)c1ccccc1F	9
CCOC(=O)NC(C(Cl)(Cl)Cl)S(=O)(=O)c1ccccc1 (configuration not stated)	21
O=C(c1ccc(S(=O)(=O)N2CCOCC2)cc1)N(c1cccc(Cl)c1)C1C=CS(=O)(=O)C1 (configuration not stated)	14
Cc1cc(C)cc(-n2cccc2/C=C2/C(=N)N3C(=NC2=O)SN=C3S(C)(=O)=O)c1	21
Cc1ccc(C)c(NC(=O)Cc2nc(CCl)cs2)c1	1
Cc1ccc(S(=O)(=O)NNc2nnc(C)c(=O)[nH]2)cc1	7
Cc1cccc(OCC(=O)N2CCN(S(C)(=O)=O)CC2)c1	13
O=C(/C=C\Nc1ccc(S(=O)(=O)Nc2ncccn2)cc1)c1ccccc1	22
CCC1CCCCN1C(=O)COc1c(Br)cc(Br)c2cccnc12 (configuration not stated)	-5
CC(C)OCCCn1c(SCC(=O)N2CCc3ccccc32)nc2ccccc2c1=O	8
COCCN1C(=O)/C(=C/c2ccc(N3CCCC3)cc2C)SC1=S	-9
CCSCc1nnc(SCC(=O)Nc2cc(F)ccc2C)n1C	8
COc1ccccc1-n1c(C)cc(/C=C2/C(=N)N3C(=NC2=O)SN=C3S(C)(=O)=O)c1C	9
Cc1ccc(-n2c(C)cc(C(=O)CN3CCOCC3)c2C)cc1C	15
Cc1ccc(C(c2nnnn2C2CCCC2)N2CCc3ccccc32)cc1 (configuration not stated)	11
COc1ccc(N2C(=O)C(CC(=O)Nc3ccccc3)N(Cc3ccc(OC)c(OC)c3)C2=O)cc1 (configuration not stated)	16
CCOc1cc(NC(=S)NCC2CCCO2)c(OCC)cc1NC(=O)c1ccccc1F (configuration not stated)	24
Cc1noc(C)c1NC(=O)NC(c1ccccc1)c1ccccc1	15
C=CCNC(=S)NCc1ccccc1	17
CCc1ccccc1NC(=O)CN(C)C(=O)CSc1nnc(Nc2cccc(C)c2C)s1	11
CCN(C(=O)c1ccc2c(Cl)c3c(nc2c1)CCC3)c1ccc(C)c(C)c1	15
COc1ccc(CC(=O)OCC(=O)Nc2ccc(C(=O)Nc3ccc(OC)cc3)cc2)cc1	12
Cc1ccc(S(=O)(=O)Nc2nc3ccccc3nc2NCC2CCCO2)c(C)c1 (configuration not stated)	7
Cc1cccc(NS(=O)(=O)Cc2ccccc2)n1	11
O=C(CN1N=C(c2ccccc2)CCC1=O)NCCCN1CCc2ccccc2C1	10
C#Cc1ccc([C@H]2C=C(C(=O)N3CCN(Cc4ccccc4)CC3)O[C@@H](OCC)[C@@H]2CCCO)cc1	21
O=C(O)Cn1cc(/C=C2/NC(=O)N(c3ccc(Cl)cc3)C2=O)c2ccccc21	7
CCC(C)NS(=O)(=O)c1ccc(OCC(=O)NCc2ccc(OC)cc2)cc1 (configuration not stated)	13
CC1CC2(NC(=O)NC2=O)C(C)CN1C (configuration not stated)	15
O=[N+]([O-])c1ccc(N=Cc2c(O)ccc3ccccc23)cc1	13
Nc1sc(-c2ccccc2)c(Cc2ccccc2)c1C(=O)O	15
N#CCCN(C(=O)COc1ccc(Cl)cc1Cl)c1ccccc1	3
O=C1N=C(N2CCc3ccccc3C2)S/C1=C\c1ccc(O)cc1	13
C/C(=N\NC(=O)c1ccncc1)C12CC3CC(CC(C3)C1)C2	12
CC(=O)Nc1cccc(NC(=O)Cc2nc(-c3ccccc3)sc2-c2ccc(C)cc2)c1	1
O=C(CSc1ccccc1)N/N=C/c1ccccc1O	12
CC(=O)c1sc(NC(=O)CCOc2ccccc2)nc1C	13
O=c1ccnc(Nc2ccc3c(c2)OCCO3)[nH]1	9

Bioassay records as filed in PubChem BioAssay.

The list is partial (hit frequency here may not be typical).
